Source: PubChem BioAssay
Polio RdRp inh – inhibitors of poliovirus RNA polymerase binding and polymerization; % elongation, % (compound at 16.7 µg/mL); 150,000 compounds, 0.66% hits; poliovirus polymerase elongation, fluorescence polarization; hits give low values; P03300; AID 588519; in the data active = % elongation below about 90%; note: some results filed as inactive read as strong as hits
Target sequence (P03300 1749-2209 limits assumed): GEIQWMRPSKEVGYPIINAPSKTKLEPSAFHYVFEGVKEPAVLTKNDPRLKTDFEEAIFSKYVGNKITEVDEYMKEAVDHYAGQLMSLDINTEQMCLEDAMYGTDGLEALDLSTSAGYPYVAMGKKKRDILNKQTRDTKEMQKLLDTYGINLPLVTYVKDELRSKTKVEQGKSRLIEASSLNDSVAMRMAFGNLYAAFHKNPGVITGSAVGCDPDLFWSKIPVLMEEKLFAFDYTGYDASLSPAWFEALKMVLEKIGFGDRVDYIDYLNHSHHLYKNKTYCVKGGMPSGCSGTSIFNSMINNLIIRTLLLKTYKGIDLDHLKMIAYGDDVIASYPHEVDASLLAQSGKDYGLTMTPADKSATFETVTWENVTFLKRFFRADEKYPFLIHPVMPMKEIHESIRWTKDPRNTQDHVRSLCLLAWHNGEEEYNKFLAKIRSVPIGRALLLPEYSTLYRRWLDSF
Polio RdRp inh intensity – also measured in Polio RdRp inh; calls as there; % elongation; measured here: total intensity read-out; formula for this scale not given here;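 total fluorescence in place of polarization; lower means less elongation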
Active calls of the source: *. Only part of the results is shown; the hit share may differ from the screen's.

No.	SMILES	Polio RdRp inh	Polio RdRp inh intensity
1	CC(=O)Nc1ccc(NC(=O)C2Cc3ccccc3N2C(=O)c2ccccc2)cc1 (centres undefined)	103	102
2	CCS(=O)(=O)c1ncc(N(Cc2ccco2)Cc2ccccc2F)c(C(=O)Nc2cccc(Cl)c2)n1	112	111
3	Cc1cccc(N(CC(=O)N(C)Cc2ccccc2)S(=O)(=O)c2ccccc2)c1C	109	108
4	Cc1ccc2c(=O)cc(C(=O)Nc3cccc(C(F)(F)F)c3)oc2c1C	108	110
5	CC1=C(C(=O)OCC2CCCCC2)C(c2ccc(Cl)cc2Cl)CC(=O)N1 (centres undefined)	105	110
6	CN1C(=O)c2ccccc2Sc2ccc(NC(=O)Cc3ccc(Cl)cc3)cc21	96	96
7	CC(=O)N1CCc2cc(CNS(=O)(=O)c3cccs3)ccc21	114	112
8	CCN(C(=O)CSc1nnc(-c2cc(OC)c(OC)c(OC)c2)o1)c1ccccc1	105	103
9	CCOC(=O)c1cccc(NC(=O)C2CCCN(c3nnc(C)c4c(C)n(-c5ccccc5)nc34)C2)c1 (centres undefined)	110	108
10	CCOc1ccc(-c2nc3cc(NC(=O)COc4cccc(C)c4)ccc3o2)cc1	104	102
11	COc1ccccc1Nc1nc(-c2ccccc2Cl)c2cc(Br)ccc2n1	101	107
12	CCN1CCN(c2cc(C)c3cc(NC(=O)/C=C/c4ccc(OCCC(C)C)cc4)ccc3n2)CC1	106	106
13	O=C(Nc1ccccc1F)c1oc2ccccc2c1NC(=O)c1c(F)cccc1F	101	103
14	CCOc1ccc(CCNC(c2nnc(-c3ccccc3)o2)c2ccccc2Cl)cc1OCC (centres undefined)	105	105
15	CCOC(=O)C1CCN(CCC(=O)Nc2ccccc2Cl)CC1	101	102
16	O=C(Cc1cccs1)NC1CC(=O)N(c2ccc(F)cc2)C1 (centres undefined)	101	104
17	COc1cccc(C(=O)NCC(c2ccc3c(c2)OCO3)N2CCN(C)CC2)c1 (centres undefined)	108	98
18	COc1ccc(CC(=O)Nc2ccc(-c3nc4ccccc4s3)c(C)c2)cc1OC	99	103
19	Cc1[nH]c2ccccc2c1C1(O)C(=O)N(Cc2ccccc2)c2ccc(Br)cc21 (centres undefined)	107	108
20	Cc1cccc(N2CCN(C(=O)c3noc4c3CCCCC4)CC2)c1C	110	107
21	O=C(Nc1cccc(Cl)c1)c1cc(S(=O)(=O)N2CCC3(CC2)OCCO3)ccc1F	106	102
22	Cc1cccc(C(=O)N2CCc3cc(CNC(=O)c4ccc(Br)o4)ccc32)c1	113	109
23	CC(=O)N1CCCc2cc(S(=O)(=O)N(Cc3ccccc3)C(C)C)ccc21	112	106
24	CCOc1ccc(CNC(=O)C2CCN(Cc3cc4ccccc4n3Cc3ccccc3C)CC2)cc1	111	115
25	CCS(=O)(=O)Nc1ccc(-c2cn3ccsc3n2)cc1	106	110
26	CN(Cc1ccccc1)c1ccc(-c2nc(-c3ccccc3)no2)cc1[N+](=O)[O-]	113	113
27	O=C(CN1C(=O)COc2ccc(S(=O)(=O)NC3CCCC3)cc21)Nc1ccc(Cl)cc1F	103	107
28	Cc1c(F)cccc1NC(=O)C1CCCN1S(=O)(=O)c1ccc(F)cc1 (centres undefined)	98	101
29	CC(C)CN(CCCNC(=O)CN1N=C(c2ccc(Cl)cc2)CCC1=O)CC(C)C	112	108
30	COC(=O)c1ccc2nc(C)cc(Nc3ccc(O)cc3)c2c1	96	90
31	O=C(c1ccc2c(c1)N(Cc1cccc(Cl)c1)C(=O)c1ccccc1S2(=O)=O)N1CCc2ccccc21	102	113
32	O=C(NCCCN1CCCCC1)c1sc2ncccc2c1-n1cccc1	102	103
33	CCOC(=O)c1ccccc1NC(=O)CSc1ncc(CO)n1Cc1ccc(C)cc1	106	108
34	CCN(Cc1nc(-c2cccc(C)c2)no1)S(=O)(=O)c1ccc(C)cc1	104	108
35	CC(C)(C)NC(=O)C1CCN(c2nc3ccccc3nc2C(F)(F)F)CC1	105	103
36	Cc1ccc(C(=O)Nc2ccc(OCc3cc(=O)n4c(C)csc4n3)cc2)cc1	105	111
37	COCCCNC(=O)Cn1c(=O)n(-c2ccc(Cl)cc2)c(=O)c2c3c(sc21)CCCCC3	109	111
38	CCC(C)NC(=O)CSc1nc2c(sc3ccccc32)c(=O)n1CCc1ccccc1 (centres undefined)	109	109
39	CCOC(=O)c1cccc(NC(=O)CSc2nc3cc4ccccc4cc3[nH]2)c1	106	107
40	CC(C)c1ccc(NC(=O)C2CCN(S(=O)(=O)c3cccc4nsnc34)CC2)cc1	108	107
41	COCCOC(=O)Cn1nnc2sc(-c3ccccc3)cc2c1=O	112	120
42	Cc1ccc(C)c(N2CCN(C(=O)CCS(=O)(=O)c3cc4c(cc3Cl)NC(=O)CO4)CC2)c1	105	113
43	COc1ccccc1CNC(=O)c1cc2c(s1)-c1ccc(Cl)cc1SC2	113	114
44	Cc1c(Cl)cccc1NC(=O)c1cc(-c2cccc(Cl)c2)on1	101	103
45	CCc1ccc(CNC(=O)CN2C(=O)CSc3ccc(S(=O)(=O)N4CCOCC4)cc32)cc1	111	104
46	COc1ccccc1C(=O)OCc1cc(=O)n2c(C)csc2n1	109	107
47	COc1ccc(-c2nc(CSCC(=O)NCc3ccccc3Cl)c(C)o2)cc1OC	102	99
48	COc1cc(NC(=O)C2CCN(S(=O)(=O)c3c(C)noc3/C=C/c3ccccc3F)CC2)cc(OC)c1OC	105	105
49	CC(=O)Nc1ccc(/C=C/c2noc(-c3ccccc3O)n2)cc1	105	106
50	CC(C)CN(CCCNC(=O)Cn1ncc2c3ccccc3n(C)c2c1=O)CC(C)C	108	111
51	Cc1ccc(C)c(NC(=O)Cn2c(=O)n(CCC(C)C)c(=O)c3cccnc32)c1	103	106
52	CCc1cccc(C)c1NC(=O)C(CC)Sc1nncn2c1cc1occc12 (centres undefined)	110	112
53	CCOc1ccc(C(=O)c2cn(CC(=O)Nc3cc(OC)cc(OC)c3)c3ccc(F)cc3c2=O)cc1	99	99
54	CC(=O)Nc1nonc1-c1nnc(SCc2ccccc2)n1C	101	104
55	CC(CCc1ccccc1)NC(=O)CSc1n[nH]c(-c2ccc(F)cc2)n1 (centres undefined)	105	102
56	CCC(C)NC(=O)c1[nH]c2cc(OC)ccc2c1Sc1ccc(C)cc1 (centres undefined)	105	112
57	O=C1c2[nH]nc(-c3ccc(F)cc3)c2C(c2ccccc2F)N1c1ccccc1 (centres undefined)	107	111
58	Cc1cccc2c1-c1sc(C(=O)N3CCN(c4cccc(Cl)c4)CC3)cc1CO2	103	108
59	CCC(O)c1cc2c(cc1NC(=O)c1ccccc1F)OCCO2 (centres undefined)	106	103
60	CCCCC(CC)CNC(=O)c1ccc2c(=O)n(Cc3ccc(OC)cc3)c(=O)[nH]c2c1 (centres undefined)	106	106

Fetched by structure from the list above (5):
No.	SMILES	Polio RdRp inh	Polio RdRp inh intensity
46	COc1ccccc1C(=O)OCc1cc(=O)n2c(C)csc2n1	109	107
24	CCOc1ccc(CNC(=O)C2CCN(Cc3cc4ccccc4n3Cc3ccccc3C)CC2)cc1	111	115
59	CCC(O)c1cc2c(cc1NC(=O)c1ccccc1F)OCCO2 (centres undefined)	106	103
50	CC(C)CN(CCCNC(=O)Cn1ncc2c3ccccc3n(C)c2c1=O)CC(C)C	108	111
14	CCOc1ccc(CCNC(c2nnc(-c3ccccc3)o2)c2ccccc2Cl)cc1OCC (centres undefined)	105	105

Later entries.
No.	SMILES	Polio RdRp inh	Polio RdRp inh intensity
61	Cc1ccc(CS(=O)(=O)c2ncc(Cl)c(C(=O)Nc3nnc(C(C)C)s3)n2)cc1	102	110
62	COc1ccc(-c2oc3ncn4nc(COc5cccc(C)c5C)nc4c3c2-c2ccc(OC)cc2)cc1	105	108
63	CC(=O)c1sc2c(c1C)c(=O)n(-c1ccc(Cl)cc1)c(=O)n2Cc1ccc(Cl)cc1	106	108
64	Cc1ccc(OCC(=O)N(Cc2ccco2)Cc2ccco2)cc1C	105	102
65	CCN(CC)S(=O)(=O)c1ccc(NC(=O)NCc2noc3ccc(C)cc23)cc1	108	99
66	COc1ccc(Cc2nc3ccc(C(=O)NCc4ccc(OC)cc4OC)cc3o2)cc1	109	113
67	COc1ccccc1CCNC(=O)c1ccc(-c2nc(CSc3ccc(C)cc3)c(C)o2)cc1	103	105
68	COc1ccc2c(c1)c1c(c(=O)n(-c3cccc(Cl)c3)c(=O)n1C)n2C	106	109
69	CCOc1ccc(CNC(=O)c2ccc3c(c2)nnn3C2CCCC2)cc1	107	111
70	CCOC(=O)c1ccccc1NC(=O)CCc1c(C)nc2c(c1C)c(=O)n(C)c(=O)n2C	111	112
71	O=S(=O)(c1ccc2nc(N3CCN(c4ccccc4)CC3)ccc2c1)N1CCCCC1	101	98
72	COc1cccc(-c2nnc(SCC(=O)N(C)C3CCCCC3)o2)c1	107	111
73	Cc1ccc(Nc2nnc(-c3ccc(C)c(S(=O)(=O)N4CCOCC4)c3)c3ccccc23)cc1	105	106
74	CCOC(=O)N1CCc2c(sc3c2c(=O)n(Cc2ccccc2)c(=O)n3CC(=O)Nc2cccc(C)c2)C1	104	110
75	CCCCOC(=O)c1ccc(NC(=O)CSc2nc3c(c(=O)[nH]2)CCCC3)cc1	112	115
76	Cc1cccc(NC(=O)CSc2nc3ccccc3c3nc(CCn4cncc4C)nn23)c1	110	110
77	CCCNC(=O)CSc1c2c(nc3ccc(Cl)cc13)CCCC2	102	111
78	COc1ccc(C2NC(=O)N(C)C3=C2C(=O)N(c2cccc(Cl)c2)C3)cc1 (centres undefined)	105	106
79	COc1ccc(S(=O)(=O)c2cc(NS(=O)(=O)c3ccc(Cl)cc3)c(C)c(C)c2O)cc1	105	107
80	CCOCCCN(Cc1ccco1)C(=O)c1cc2c(=O)[nH]c3ccc(C)cc3c2s1	103	101
81	Cc1ccc(OCCn2c(-c3ccc(Cl)cc3)nc3ccccc3c2=O)c(C)c1	103	104
82	Cc1ccc2c(c1)c1c(c(=O)n(-c3ccccc3C)c(=O)n1CC(=O)NCCC1=CCCCC1)n2C	109	115
83	CCN(CC)c1ccc(-c2nc(-c3ccncc3)no2)cc1[N+](=O)[O-]	109	119
84	Cc1ccc(CN2C(=O)N(c3ccccc3)C(=O)C2CC(=O)Nc2ccccc2)cc1 (centres undefined)	107	108
85	O=c1cc(CN2CCN(S(=O)(=O)c3ccccc3)CC2)nc2sc(-c3ccccc3Cl)nn12	108	114
86	Cc1cccc(C)c1Nc1c(-c2ccsc2)nc2ccc(Cl)cn12	106	106
87	COC(=O)c1cc2sccc2n1Cc1nc(-c2cccc(Cl)c2)oc1C	107	109
88	Cc1cccc(NC(=O)CSc2cn(CC(=O)N3CCOCC3)c3ccccc23)c1C	121	116
89	Cc1ccc(CSc2oc(-c3ccco3)nc2S(=O)(=O)c2ccc(Br)cc2)cc1	103	102
90	COC(=O)c1ccccc1NC(=O)C1=C(C)C(=O)OC12CCC(C)CC2 (centres undefined)	111	110
91	Cc1cc(C)c2c(=O)cc(C(=O)NCCc3ccc(S(N)(=O)=O)cc3)oc2c1	111	117
92	Cc1ccc(Cl)cc1N1CCN(S(=O)(=O)c2ccc3c(c2)C(C(C)C)C(=O)N3)CC1 (centres undefined)	109	108
93	COc1cccc(NC(=O)Cn2c(=O)n(-c3ccc(C)cc3)c(=O)c3ccc(C(=O)NCc4ccco4)cc32)c1	106	104
94	O=C1CN(C(=O)c2ccccc2C(F)(F)F)C(c2ccccc2)c2cc(F)ccc2N1 (centres undefined)	108	110
95	CCCCNC(=O)c1cccc(NC(=O)c2nsc3ccccc23)c1	104	100
96	N#Cc1ccccc1Cn1nnc2c(=O)[nH]c(C3CCCN(S(=O)(=O)c4ccc(F)cc4)C3)nc21 (centres undefined)	101	93
97	CN1C(=O)Cc2cc(S(=O)(=O)NCc3ccc(Cl)cc3)ccc21	101	94
98	CN(C)CCN(Cc1ccco1)S(=O)(=O)c1cc2c(cc1Cl)NC(=O)CO2	108	119
99	CCn1cc(C(=O)N2CCN(c3cc(Cl)ccc3C)CC2)c(=O)c2cc(S(=O)(=O)N3CCCCC3)ccc21	104	105
100	CCc1ccc(S(=O)(=O)c2cnc3ccc(OC)cc3c2N2CCCC(C)C2)cc1 (centres undefined)	108	112

Exported with two lines to a compound: part of the list above.
Values run as follows: Polio RdRp inh, Polio RdRp inh intensity
#90 COC(=O)c1ccccc1NC(=O)C1=C(C)C(=O)OC12CCC(C)CC2 (centres undefined)
    111, 110
#93 COc1cccc(NC(=O)Cn2c(=O)n(-c3ccc(C)cc3)c(=O)c3ccc(C(=O)NCc4ccco4)cc32)c1
    106, 104
#91 Cc1cc(C)c2c(=O)cc(C(=O)NCCc3ccc(S(N)(=O)=O)cc3)oc2c1
    111, 117
#83 CCN(CC)c1ccc(-c2nc(-c3ccncc3)no2)cc1[N+](=O)[O-]
    109, 119
#97 CN1C(=O)Cc2cc(S(=O)(=O)NCc3ccc(Cl)cc3)ccc21
    101, 94
#92 Cc1ccc(Cl)cc1N1CCN(S(=O)(=O)c2ccc3c(c2)C(C(C)C)C(=O)N3)CC1 (centres undefined)
    109, 108
#85 O=c1cc(CN2CCN(S(=O)(=O)c3ccccc3)CC2)nc2sc(-c3ccccc3Cl)nn12
    108, 114

Continuation:
No.	SMILES	Polio RdRp inh	Polio RdRp inh intensity
101	COc1ccc(-c2nnc(SCC(=O)NCCc3ccccc3)nc2-c2ccc(OC)cc2)cc1	117	129
102	CCCN(C(=O)c1cc2c(=O)oc3ccc(C)cc3c2s1)c1ccc(OCC)cc1	106	111
103	Cc1cc(C)cc(OC(C)C(=O)Nc2c(C(=O)c3ccccc3)oc3ccccc23)c1 (centres undefined)	105	107
104	COc1ccc(N2CC(NC(=O)/C=C\c3ccc(OC)c(OC)c3)CC2=O)cc1 (centres undefined)	102	99
105	Fc1ccc(N2CCN(c3ncnc4c3nc3n4CCCCC3)CC2)cc1	103	103
106	CC1CCCCN1CCCNC(=O)c1cc(Sc2ccc(Cl)cc2)nc2ccccc12 (centres undefined)	109	108
107	COc1ccc(C2C=C(c3ccccc3)Nc3nc(NC(=O)/C=C/c4ccc(F)cc4)nn32)cc1 (centres undefined)	110	110
108	COC(=O)c1ccc2c(c1)N(CC(=O)Nc1ccc(OC)c(Cl)c1)C(=O)c1ccccc1S2	105	110
